gsp antag: qHTS for Antagonists of gsp, the Etiologic Mutation Responsible for Fibrous Dysplasia/McCune-Albright Syndrome: qHTS; AID 624288, 2012; 0.4% of 340,000 active; gsp-mutant cells, cAMP HTRF, 30 min; control for the full effect not named in the record; Potency, µM (series often up to 76.9 µM), for inactives: at the highest dose activity change, negative = inhibition, usual class: inhibitors; active = falling curve of any shape with a large fitted effect; inconclusive = falling curve, mostly with a smaller effect; inactive = flat or rising curve; cell line not stated here;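 also: intracellular cAMP measured with PDE inhibitor Ro 20-1724 present during compound exposure; potency is read from the fitted curve at half-maximal effect; % is scaled to controls: 0 for no effect and ±100 for the full control effect; nearly all actives have a fitted effect of over 65% in size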
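Measurement of cellular cAMP by homogeneous time-resolved fluorescence following a 30 min compound exposure at 37C. The PDE inhibitor […] was present throughout; the assay buffer was DPBS with 0.05% BSA and 0.005% Tween 20.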
TRPML1 agonist: qHTS for Agonists of the Human Mucolipin Transient Receptor Potential 1 (TRPML1). Mucolipin-1 (Homo sapiens), Q9GZU1. activation, % (test concentration not listed). TRPML1-expressing cells, Ca2+ dye fluorescence, FDSS; host cell line not named in the record; reference of the full effect not given here. AID 624414, 2012. 0.12% of 410,000 active; in the data active = activation above about 50%; inconclusive = about 30% to 50%; inactive = below about 30%; also: 0% is about no effect; the text of the record puts the active cut at 80%
Target sequence (Q9GZU1 whole entry, looked up): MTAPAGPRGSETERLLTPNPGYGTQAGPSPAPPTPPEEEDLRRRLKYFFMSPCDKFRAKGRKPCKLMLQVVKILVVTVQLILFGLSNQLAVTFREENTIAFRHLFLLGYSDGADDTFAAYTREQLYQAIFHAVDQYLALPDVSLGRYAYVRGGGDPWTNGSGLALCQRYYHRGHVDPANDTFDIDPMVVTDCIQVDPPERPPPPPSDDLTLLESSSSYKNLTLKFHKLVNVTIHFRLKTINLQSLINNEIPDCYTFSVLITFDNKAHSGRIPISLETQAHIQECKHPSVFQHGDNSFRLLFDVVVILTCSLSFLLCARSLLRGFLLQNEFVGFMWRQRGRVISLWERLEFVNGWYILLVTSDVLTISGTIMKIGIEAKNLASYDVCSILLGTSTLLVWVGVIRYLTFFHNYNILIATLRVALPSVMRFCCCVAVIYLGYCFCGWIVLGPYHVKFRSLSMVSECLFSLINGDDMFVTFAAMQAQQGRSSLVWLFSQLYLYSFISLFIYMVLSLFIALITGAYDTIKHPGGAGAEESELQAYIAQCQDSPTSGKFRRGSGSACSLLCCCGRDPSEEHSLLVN
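Agonist activity was taken from a 110 s kinetic Ca2+ dye read on the FDSS after pinning compounds onto TRPML1-DL cells. The cells were seeded at 1,500/well with Tet inducer, incubated about 16 h, then dye-loaded at room temperature.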
Menin MLL FP FL: qHTS Assay for Inhibitors Targeting the Menin-MLL Interaction in MLL Related Leukemias: Competition With Fluorescein Labeled MLL-derived Peptide | Fluorescence polarization, fluorescein-MLL peptide displacement from menin | FP activity change, % at 61.4 µM | 290,000 tested, under 10 active | AID 1766, 2009; inconclusive = falling polarisation curve, or a change in total fluorescence; inactive = total fluorescence flat and polarisation flat or rising; no compound was filed as active; the % refers to the polarisation; negative = inhibition;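 also: % of control where 0% means no effect; inhibitors lower the polarisation; unlabelled MLL peptide was the positive control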
TRPML1 blocker: qHTS for Inhibitors of the Human Mucolipin Transient Receptor Potential 1 (TRPML1); Mucolipin-1 (Homo sapiens), Q9GZU1; TRPML1-inducible cells, Ca2+ dye fluorescence, FDSS; hits give low values; inhibition of EC80 agonist-evoked calcium signal; activity change, negative = inhibition, % (no concentration beside the values); 0.02% of 390,000 active; AID 624415, 2012; in the data active means activity change below about -50%; inconclusive means about -30% to -50%; inactive means above about -30%;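 also: stimulus is agonist 54-4 at its EC80 concentration; % is scaled to controls: 0 for no effect and ±100 for the full control effect; compound concentration not given in the record; the text of the record puts the active cut at -80%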
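Calcium fluorescence in TRPML1-DL cells induced overnight with Tet: a 110 s read after compound pin addition, then a 110 s antagonist read after challenge with 54-4 at 4 uM final (EC80).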
gsp agonist: qHTS for Agonist of gsp, the Etiologic Mutation Responsible for Fibrous Dysplasia/McCune-Albright Syndrome: qHTS; AID 624287, 2012; Potency, µM (top dose mostly 76.9 µM), inactives show at the highest dose activation (cAMP increase), hits mostly activators; 0.13% of 340,000 active; gsp mutant cells, cAMP HTRF, 30 min; control for the full effect not named in the record; active = well fitted activation curve with a large enough effect; inconclusive = small, poorly fitted or top-dose-only effect, or another doubt; inactive = no such curve, though single readings can be large or run the other way; cell line not stated here;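 also: phosphodiesterase inhibitor Ro 20-1724 added with compounds to block cAMP breakdown; potency is read from the fitted curve at half-maximal effect; nearly all actives have a fitted effect of over 60% in size; about a fifth of the inactives were tested at one dose only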
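Cells stably selected in G418 were plated at 2000/well, grown 16-24 hr, then given compounds in DMSO with the PDE inhibitor […] (300 uM solution added) for 30 min at 37C; cAMP was read by HTRF.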
ClpP mod: qHTS Assay for Activators of ClpP; AID 651965, 2013; Potency, µM (series often up to 57.5 µM), for inactives: at the top dose activity change, negative = active; purified B. subtilis ClpP, FRET peptide cleavage, 20 min; ATP-dependent Clp protease proteolytic subunit (Bacillus subtilis (strain 168)), P80244; 1.9% of 340,000 active; active = well fitted falling curve with a large enough effect; inconclusive = small, poorly fitted or top-dose-only effect; inactive = no such curve, though single readings can be large or run the other way; also: potency is read from the fitted curve at half-maximal effect; the source files actives as falling curves though it sought activators and does not explain the sign; nearly all actives have a fitted effect of over 65% in size; many hits overshoot -100%
Target sequence (P80244 whole entry, looked up): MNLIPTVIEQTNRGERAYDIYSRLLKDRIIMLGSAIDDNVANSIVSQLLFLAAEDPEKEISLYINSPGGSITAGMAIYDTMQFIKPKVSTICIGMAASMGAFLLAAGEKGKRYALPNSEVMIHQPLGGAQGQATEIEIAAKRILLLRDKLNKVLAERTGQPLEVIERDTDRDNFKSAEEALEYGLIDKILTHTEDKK
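ClpP 10 microg/mL final, pH 8 Tris/KCl buffer with BSA, glycerol, Tween-20; compound pinned in; FRET-FV substrate; RT 20 min; Ex320/Em430; ΔFRET vs ADEP 5.8 microM, DMSO, no enzyme.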
* = called active by the depositor; u = inconclusive; x = not tested or not shown; [ ] = another dose, or the depositor's remark. This is a random part of the collection; 2.1% or so of the library scored in one or more.

Structure	gsp antag	TRPML1 agonist	Menin MLL FP FL	TRPML1 blocker	gsp agonist	ClpP mod
Cc1ccc(S(=O)(=O)NCCOc2nc(N(C)C)nc(N(C)C)n2)cc1	9.9%	x	0.0	x	u	1.4%
CN(CC(=O)Nc1cccc([N+](=O)[O-])c1)S(=O)(=O)c1ccccc1	4.2%	2.9	-5.7	1.9	u	0.6%
Cc1cccc(NC(=O)CCS(=O)(=O)c2ccc(Br)cc2)c1	-4.3%	1.3	-2.8	-6.2	12.7%	-0.7%
CC(C)c1ccc(NC(=O)C2CC(=O)N(C(C)C)C2)cc1 (centres undefined)	-3.0%	2.4	-4.0	18.2	-7.9%	-0.5%
COc1ccc(CC(=O)Nc2nc3c(s2)CC(C(C)(C)C)CC3)cc1 (centres undefined)	x	0.6	x	-20.9	x	-2.4%
COC(=O)c1oc2ccc(Cl)cc2c1N	8.4%	-0.5	2.6	13.7	2.1%	u
S=C(Nc1ccc2cn[nH]c2c1)Nc1ccccc1Cl	4.8%	0.3	0.2	17.6	-3.4%[15.4 µM]	-1.9%
O=C(COCC(=O)N/N=C/c1ccc(F)cc1)N/N=C/c1ccc(F)cc1	0.1%	-1.0	4.1	9.8	-5.6%[15.4 µM]	-7.6%
O=C(N/N=C/c1cccc(F)c1)c1c(O)c2ccccc2[nH]c1=O	2.2%	-0.2	1.1	4.9	-16.9%[15.4 µM]	0.4%
CCC(C)(c1nnnn1-c1c(C)cccc1C)N(N=O)c1ccccc1Cl (centres undefined)	-9.9%	2.1	4.9	65.7	16.9%	-1.1%
CCOC(=O)N1CCN(CC(O)COc2c(C)cc(C)cc2C)CC1 (centres undefined)	5.8%	1.9	-0.2	-15.8	u	-1.2%
COc1cccc(/C=N\NC(=O)c2ccc(C)nc2)c1	-0.9%	0.1	1.4	-5.2	-0.7%[15.4 µM]	-0.2%
CCn1c(SCC(=O)Nc2nonc2C)nnc1-c1ccoc1C	0.5%	-1.2	-2.0	-0.2	-2.5%	0.6%
C=CCS/C(N)=N\N=C\c1cc(Br)cc([N+](=O)[O-])c1O	1.6%	1.0	2.0	0.3	0.9%[15.4 µM]	x
CC(C)c1ccc(NC(=O)[C@@H](C)NC(=O)[C@@H]2Cc3ccccc3CN2)cc1	7.9%	-0.1	x	12.3	-0.6%	x
COc1ccc(CN2CCN(C(=O)C3CC(=O)N(C4CCCCCC4)C3)CC2)c(OC)c1OC (centres undefined)	-0.7%	-0.4	4.5	2.4	8.7%	-7.4%
COCCCN1C(=O)c2oc3ccccc3c(=O)c2C12C(=O)N(C)c1ccccc12 (centres undefined)	x	-0.6	x	8.3	x	0.0%
Cc1[nH]c2ccc(-c3nnc(SCC(=O)N4CCCc5ccccc54)o3)cc2c1C	-7.8%	-0.4	1.2	27.8	-8.9%	-16.8%
CCc1nc2ccc(C(=O)NCCN3CCNC3=O)cn2c1N(CC)CCOC	x	0.0	x	6.6	x	-0.6%
Cc1cc(C)c(-n2nnnc2SC(C)C)c(C)c1	-2.4%	5.4	7.3	10.8	5.3%	0.4%
COc1ccc(C[C@H]2c3cc(O)c(OC)cc3CC[N+]2(C)[O-])cc1O (some centres undefined)	-25.9%	-0.6	-0.5	-8.3	x	4.3%
CC1CC(C)CN(C(=O)C2CCN(S(=O)(=O)N3CCC4(CC3)OCCO4)CC2)C1 (centres undefined)	3.7%	-0.2	0.9	8.8	59.2%	2.2%
CCOc1ccccc1C(=O)NCCc1cnc[nH]1	11.0%	x	-5.8	x	u	-1.6%
COc1ccc(N2CCN(C(=O)c3ccc(CNS(=O)(=O)c4ccc(C)cc4)cc3)CC2)cc1	-17.5%	0.7	0.3	23.0	24.2%	x
Cc1ccc(C2NC(=O)Cc3ccccc32)cc1 (centres undefined)	u	1.7	-0.5	18.0	-0.6%	-1.3%
CC(=O)N1CCN(C(=S)NCCc2ccccc2)CC1	3.6%	-0.3	3.5	1.0	-35.6%[inhibitor]	2.3%
Cc1ccc(C(=O)Nc2nccs2)s1	18.4%	x	-1.8	x	3.3%	-2.8%
COc1ccc(C(=O)OCC(=O)Nc2c(C)n(C)n(-c3ccccc3)c2=O)cc1OC	6.5%	-0.4	x	6.7	7.9%	-2.9%
CC(C)n1ncc2c(C(=O)Nc3cccc(S(=O)(=O)N(C)C)c3)cc(C3CC3)nc21	-14.1%	3.3	x	10.8	13.2%	-11.6%
CN1CCN(S(=O)(=O)c2ccc(N3CCN(c4ccccc4Cl)CC3)nc2)CC1	13.3%	-0.5	x	5.6	-9.7%	-0.8%
Cc1ccnc(NC(=O)CCC(=O)N(CC(=O)NCc2ccc(F)cc2)c2ccc(F)cc2)c1	10.0%	-0.3	x	-14.1	-2.8%[15.4 µM]	x
Cc1ccc(-c2nnc(-c3cccnc3)o2)cc1	-0.8%	-0.9	3.9	-12.1	u	3.7%
CN1C(=O)CC(NNC(=O)c2ccccc2)C1=O (centres undefined)	-5.0%	0.9	1.9	-17.1	3.9%	-2.5%
COc1ccc(S(=O)(=O)N(C)c2ccc(C(=O)NC3CC3)cc2)cc1	6.7%	0.1	x	-4.6	-26.7%	-0.1%
O=C(CSc1ncccn1)N1CCN(C(=O)CSc2ncccn2)CC1	-1.5%	-0.5	8.0	3.7	5.7%	2.6%
CCCC(=O)c1ccc(N2CCCCCC2)c(F)c1	-3.2%	1.4	1.6	9.9	20.8%	-14.0%
COc1ccc(C(=O)OCC(O)COC(=O)c2ccc(OC)cc2)cc1	5.4%	0.8	x	25.2	-3.2%	x
CCOc1ccccc1C1CC(c2cccc(NS(C)(=O)=O)c2)=NN1C(=O)c1ccccc1 (centres undefined)	-23.2%	-0.3	3.8	-8.3	-12.3%	1.2%
CCn1c(=O)n(CC)c2cc(N3CCCC3)c(NC(=O)c3ccc(C)cc3)cc21	u	3.5	x	17.9	-37.9%[inhibitor]	2.5%
O=C(c1cccc(Cl)c1)N1CCC(=O)N(C(COCc2cccc(Cl)c2)Cc2ccccc2)CC1 (centres undefined)	-14.7%	2.1	3.4	-2.9	14.3%	0.5%
CCN1C(=O)c2cccc3c(S(=O)(=O)N(C(C)=O)c4ccc(OC(C)=O)cc4)ccc1c23	-6.0%	1.3	x	12.5	-2.9%	4.6%
COc1ccc2[nH]c(C(=O)N(C)c3ccc(F)cc3F)cc2c1	6.2%	1.2	1.8	51.4	12.1%[15.4 µM]	-1.9%
Cc1cc(C)cc(OC(=O)c2cc(-c3ccc(Cl)cc3)on2)c1	x	-0.4	x	16.9	x	0.8%
CCNC(=O)C1CCCN(C(=O)c2ccc3c(c2)OCO3)CC1 (centres undefined)	x	0.1	x	-6.0	x	-0.7%
CC(C)(C)c1ccc(S(=O)(=O)c2cn(CC(=O)Nc3ccccc3)c3ccccc3c2=O)cc1	x	0.0	x	-1.0	x	-14.2%
FC(F)(F)c1cccc(NCc2n[nH]c(=S)n2C2CCCCC2)c1	-5.2%	2.9	2.1	11.3	-21.1%	-1.1%
CN(CC(=O)Nc1sccc1C(N)=O)S(=O)(=O)c1ccc(Cl)cc1	-24.9%	-0.6	x	-2.3	0.0%	-6.4%
COc1ccc(OC)c(NC(=O)CCN2CC(C)OC(C)C2)c1 (centres undefined)	-5.0%	-0.3	2.2	7.3	8.7%	-1.5%
CCCCn1c(N)c(N(CCOC)C(=O)c2cc(S(=O)(=O)N3CCOCC3)ccc2F)c(=O)[nH]c1=O	u	-0.2	x	-3.2	-0.5%	0.8%
COc1ccc(C)cc1NC(=O)C(OC(=O)c1cnccn1)c1ccccc1 (centres undefined)	12.6%	0.0	x	-1.5	10.4%	0.4%
CCCCCC(=O)O/N=C(\C)c1ccn(S(=O)(=O)c2ccccc2)c1	15.8%	0.7	2.9	-5.2	-0.7%[15.4 µM]	-0.2%
O=C(NCCc1ccccc1)/C(=C\c1ccc([N+](=O)[O-])cc1)NC(=O)c1ccccc1	-25.2%	3.6	1.6	0.3	-3.9%[15.4 µM]	2.2%
CC(c1ccccc1)n1cc(C(=O)NCc2cccnc2)nn1 (centres undefined)	16.8%	2.5	2.4	14.1	u	-0.9%
O=C1c2ccccc2C(=O)N1CCCc1nc(-c2ccc(Cl)cc2)no1	2.5%	-0.4	1.4	-2.9	u	-2.3%
CCSc1cnc(-c2ccccc2)n1CC	-6.0%	0.6	-3.6	40.8	-20.9%	-21.1%
OCC1(Cc2ccccc2)CCCN(Cc2cn[nH]c2-c2ccccc2)C1 (centres undefined)	13.2%	-0.2	1.1	-7.6	1.6%[15.4 µM]	x
CC(C)=CC1C(C(=O)Nc2ccc(S(=O)(=O)N3CCOCC3)cc2)C1(C)C (centres undefined)	-8.0%	1.5	x	-1.5	-16.7%[15.4 µM]	x
COc1ccc(NC(=O)CSc2nnc(Cc3cccn3C)n2-c2ccc(F)cc2)cc1	-3.5%	0.6	2.3	49.8	-84.5%[inhibitor]	1.8%
COc1cc(-c2nccc3cc4c(cc23)OCO4)cc(OC)c1OC	30.2%[activator]	2.6	x	0.8	22.6%	x
Cc1cc2ncn(-c3ncnc4sc(C)c(C)c34)c2cc1C	-5.7%	-1.7	4.3	37.1	-17.9%	-0.8%

(next part)
Structure	gsp antag	TRPML1 agonist	Menin MLL FP FL	TRPML1 blocker	gsp agonist	ClpP mod
CCN1CCN(S(=O)(=O)c2cc(OC)c(Cl)cc2OC)CC1	2.2%	0.1	-0.8	18.2	u	-6.8%
Fc1cccc(/C=N/Nc2nncc3ccccc23)c1	-16.2%	1.4	0.9	-1.7	4.9%	2.0%
O=C(O)CCc1ccc(-c2ccc(F)cc2)n1CCC(=O)O	4.1%	0.5	0.1	-9.0	u	-19.3%
CC1CCN(C(=O)CN(c2cccc(F)c2)S(C)(=O)=O)CC1	3.9%	1.6	-3.0	-14.4	-5.7%[15.4 µM]	x
CCC(C(=O)OCC(=O)Nc1cc(C)ccc1OC)c1ccccc1 (centres undefined)	-3.3%	1.0	0.3	31.1	-32.9%[inhibitor]	x
Cc1ccc2c(c1)N(C(C)C(=O)NCc1ccc3c(c1)OCO3)C(=O)CO2 (centres undefined)	1.0%	0.7	2.8	-8.4	-29.9%	-4.7%
Cc1nnc2c3ccccc3c(Cl)nn12	5.2%	-0.3	5.3	-4.1	25.1µM*	-12.5%
COCCNC(=S)N1CCC(C(=O)c2ccc(Cl)cc2)CC1	x	-0.5	x	-7.0	-80.7%[inhibitor]	-2.9%
CCN(CC)CCCNC(=O)c1cn(CC)c2cc(N3CCN(C(=O)c4ccco4)CC3)c(F)cc2c1=O	u	-1.0	-3.1	2.4	u	3.9%

Source: PubChem (National Center for Advancing Translational Sciences (NCATS))
